Bm FixLJ act – activators of Burkholderia fixLJ two-component system. B. multivorans fixK-promoter GFP reporter, 18 h; active compounds read high. z-score (test concentration not listed). hit rate 0.3% among 29,000. AID 1918990;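 active = replicate mean overnight rise in green fluorescent reporter signal, 3 or more SD over negative controls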;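 note: score is relative to vehicle wells of the plate; 300 nL library stock went into each well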
* = called active by the depositor; & = joins results of further samples. Some of the compounds tested (hit frequency here may not be typical).

The opening 2 entries, ahead of the listing:
SMILES	Bm FixLJ act
CCCn1c(=N)c(C(=O)NCc2cccnc2)cc2c(=O)n3ccccc3nc21	-1.3
COc1cc(NC(=O)C2CCN(S(=O)(=O)c3c(C)noc3/C=C/c3cccs3)CC2)cc(OC)c1	0.07

Results, previewed entries included:
SMILES	Bm FixLJ act
CCCn1c(=N)c(C(=O)NCc2cccnc2)cc2c(=O)n3ccccc3nc21	-1.3
COc1cc(NC(=O)C2CCN(S(=O)(=O)c3c(C)noc3/C=C/c3cccs3)CC2)cc(OC)c1	0.07
CN(CCCOc1ccccc1Cl)C(=O)CCNC(=O)c1ccccc1F	-0.4
CS(=O)(=O)N(CC(=O)NCCc1ccccc1)c1cc(C(F)(F)F)ccc1Cl	-1.3
Cc1cccc(NC(=O)c2oc3ccccc3c2NC(=O)c2cc(=O)c3ccccc3o2)c1	-1.7
COc1cc2nc(SCC(=O)Nc3cccc(C)c3)n3nc(CCn4c(C)nc5ccccc54)nc3c2cc1OC	-0.03
O=C(NCCc1ccccc1)c1ccc(CS(=O)(=O)c2ccc(Br)cc2)o1	-0.12
CCOC1COCC1NC(=O)Cc1c(C)[nH]c2c(F)cccc12 (stereo not drawn)	-3.8
CC(C)n1ccnc1CNC(=O)C1OCC(=O)NC1c1ccccc1 (stereo not drawn)	-1.6
c1cnc(N2CCN(Cc3nc(-c4ccncc4)no3)CC2)nc1	-1.2
O=C(Cn1c(=O)oc2cc(S(=O)(=O)N3CCCCC3)ccc21)Nc1cccc(Cl)c1	-3.5
Cc1cc(C)c(Cn2c(C)c(CNCCCc3ccccc3)c(C(=O)O)c2C)c(C)c1	-2.6
Cc1ncn(C)c1C(=O)N1CCC(C(=O)O)(c2ccccc2)C1 (stereo not drawn)	-0.26
Cc1ccccc1NC(=O)Cn1c(=O)n(CCCCC(=O)NCc2ccccc2Cl)c(=O)c2ccccc21	-0.34
CCOC(=O)N1CCC(c2nnc(CN3CCCCC3)n2C)CC1	-1.1
CCOC(=O)[C@@]12CCC(N3CCOCC3)C[C@H]1CCN(C(=O)CCc1ccccc1)C2 (stereo partly drawn)	-0.43
CCOC(=O)c1ccccc1NC(=O)Cn1nnc2sc3c(c2c1=O)CCCC3	-2.4
COc1ccc(N(CC(=O)N2CCN(c3cccc(C)c3C)CC2)S(=O)(=O)c2c(C)noc2C)cc1	-2
Cc1oc(-c2ccccc2F)nc1CS(=O)(=O)CC(=O)N1CCN(c2cccc(C(F)(F)F)c2)CC1	-1
Cc1ccc(-c2nnc(Nc3cccc(O)c3)c3ccccc23)cc1S(=O)(=O)NCC1CCCO1 (stereo not drawn)	-1.9
Cc1ccc(C(=O)Nc2ccc3oc(-c4ccncc4)nc3c2)c(Cl)c1	0.11
O=C1COc2ccc(-c3cc(-c4ccc(F)cc4)c4c(n3)-c3ccccc3OC4)cc2N1	-0.9
Cc1[nH]cnc1C(=O)NCC1CCCN(C(=O)c2cc[nH]c2)C1 (stereo not drawn)	-1.1
Cc1cc2oc(C(=O)N(Cc3ccco3)Cc3ccccc3Cl)c(C)c2cc1C	-0.36
CC(C)(C)c1ccc(OCc2cc(=O)n3c4c(sc3n2)CCCC4)cc1	-0.66

A section from further up:
SMILES	Bm FixLJ act
CN(CCCOc1ccccc1Cl)C(=O)CCNC(=O)c1ccccc1F	-0.4
CS(=O)(=O)N(CC(=O)NCCc1ccccc1)c1cc(C(F)(F)F)ccc1Cl	-1.3

Another view of some results above.
Molecule,Bm FixLJ act
Cc1oc(-c2ccccc2F)nc1CS(=O)(=O)CC(=O)N1CCN(c2cccc(C(F)(F)F)c2)CC1,-1
O=C(Cn1c(=O)oc2cc(S(=O)(=O)N3CCCCC3)ccc21)Nc1cccc(Cl)c1,-3.5
O=C1COc2ccc(-c3cc(-c4ccc(F)cc4)c4c(n3)-c3ccccc3OC4)cc2N1,-0.9
Cc1cccc(NC(=O)c2oc3ccccc3c2NC(=O)c2cc(=O)c3ccccc3o2)c1,-1.7
Cc1ccc(-c2nnc(Nc3cccc(O)c3)c3ccccc23)cc1S(=O)(=O)NCC1CCCO1 (stereo not drawn),-1.9

A different layout for part of the listing above.
Compound,Bm FixLJ act
CS(=O)(=O)N(CC(=O)NCCc1ccccc1)c1cc(C(F)(F)F)ccc1Cl,-1.3
CC(C)(C)c1ccc(OCc2cc(=O)n3c4c(sc3n2)CCCC4)cc1,-0.66
COc1cc(NC(=O)C2CCN(S(=O)(=O)c3c(C)noc3/C=C/c3cccs3)CC2)cc(OC)c1,0.07

Further structures:
SMILES	Bm FixLJ act
CCOC(=O)c1cccc(NC(=O)CSc2cc(=O)n(C)c3ccccc23)c1	-0.9
CCN(CC)S(=O)(=O)c1ccc2c(c1)c(=O)c(C(=O)NCCc1ccc(OC)c(OC)c1)cn2C	-0.02
Cn1c(=O)c2c(nc(SCC(=O)Nc3ccc(F)c(F)c3)n2Cc2ccccc2F)n(C)c1=O	-2.6
CN(C)c1nc(-c2ccncc2)nc2c1CCN(C(=O)c1cc(=O)[nH]c(=O)[nH]1)C2	-1.5
Cc1ccc(-n2nc(C)c(C(=O)O)c2-n2cccc2)cc1	0.87
Cc1nc(N2CCCCC2)ncc1C(=O)N1CCC(CS(N)(=O)=O)C1 (stereo not drawn)	-0.01
Cc1ccc(-n2nc3ccc(NC(=O)c4oc5ccccc5c4C)cc3n2)cc1	-1.5
Cc1cccc(C)c1C(=O)NC(c1cnn(C)c1)C1CC(O)C1 (stereo not drawn)	1.2
COc1cncc(C(NC(=O)c2cc3ccccc3[nH]2)C2CC(O)C2)c1 (stereo not drawn)	-0.26
COc1ccc(Cn2c(CCC(=O)Nc3ccc(Br)c(C)c3)nc3cccnc32)cc1	1.3
CCOC(=O)c1sc2ncn(CC(=O)Nc3cccc(C)c3)c(=O)c2c1C	-3
COc1cc(OC)cc(-c2nc3nc(C)c(CCC(=O)Nc4ccccc4)c(C)n3n2)c1	-1.5
Cc1oc2c(c1C(=O)N1CCCC3(CCOC3)C1)C(=O)CCC2 (stereo not drawn)	-1.2
NS(=O)(=O)Cc1noc2ccccc12	-1.2
CCOc1ccc(-c2cc3nc(C4CCN(C(=O)OC(C)(C)C)CC4)c(C(=O)Nc4cccc(CC)c4)cn3n2)cc1	-0.21
COc1cc2ccccc2cc1C(=O)Nc1ccc(Cl)c(-c2nc3ccccc3o2)c1	-1.3
COC(=O)c1ccccc1NC(=O)Cn1c(=O)n(CCC(=O)NCc2ccccc2OC)c(=O)c2ccccc21	-0.61
Cc1cccc(NC(=O)c2ccc3oc(=O)c(S(=O)(=O)c4ccc(F)cc4)cc3c2)c1C	2
CCOc1ccc(S(=O)(=O)c2cn(C)c3ccccc3c2=O)cc1	-0.7
Cc1cc(C)c2c(=O)cc(C(=O)Nc3sc4c(c3C(=O)NCC3CCCO3)CCCC4)oc2c1 (stereo not drawn)	-2.2
Nc1c(C(=O)Nc2ccccc2Cl)c2ccccn2c1C(=O)c1ccc(Cl)cc1	-0.2
COC[C@@]12CCC(N3CCOCC3)CC1CCN(C(=O)c1ccoc1)C2 (stereo partly drawn)	-2.6
CCOc1cccc(NC(=O)C2CC(=O)N(CC)C(=Nc3ccc(F)cc3)S2)c1 (stereo not drawn)	-3.1
O=C1CCc2cc(F)cc(NC(=O)NCCCn3nccc3C3CC3)c2N1	-1.2
O=C(NCCc1ccc(Cl)cc1)c1nnc(Cc2ccc(Cl)cc2Cl)o1	-0.15
SMILES	Bm FixLJ act
Cc1cc(=O)n2[nH]c(NC(=O)c3cccc(Cl)c3)nc2n1	-0.71
Cc1cccc(NC(=O)C2CCN(S(=O)(=O)c3ccc(F)cc3)CC2)c1C	-2.5
CNC(=O)c1cccc(S(=O)(=O)N2CCC3(CC2)OCCc2cccc(OC)c23)c1	0.73
CCCCN(CCCC)CCNC(=O)c1cn(CC)c2ccc(S(=O)(=O)N(C)C3CCCCC3)cc2c1=O	0.12
CCN1CCN(CC(=O)NC(C)c2nc3ccccc3n2C)CC1 (stereo not drawn)	0.75
COCc1nc(NCCCN2CCOCC2)cc(C2CC(N)C2)n1 (stereo not drawn)	-0.78
Cn1ccnc1CCN1CCN(CC(=O)NC(C)(C)C)CC1	-1.2
Cc1ccc(NC(=O)Cn2c(=O)n(Cc3ccco3)c(=O)c3ccccc32)c(C)c1	-2.6
CCC(=O)Oc1ccc(C2Nc3ccccc3-c3nnc(SC)nc3O2)cc1 (stereo not drawn)	-2.1
COc1ccc(OC)c(NC(=O)c2cc(-c3ccc(Cl)s3)nc3ccccc23)c1	0.43
CCOc1ccc(CCNC(=O)CCCc2cc(-c3ccc(OCC)cc3)on2)cc1	-1.4
CCn1cnnc1CN1CCC2(CCC(=O)N(C3CCCC3)C2)CC1	0.08
CCOC(=O)c1ccc(N2C(=O)c3n[nH]c(-c4ccco4)c3C2c2ccc(C(=O)OC)cc2)cc1 (stereo not drawn)	0.38
C[C@H]1CN(C2CCC(C#N)(c3ccc(F)cc3)CC2)CC[C@@]1(C(=O)O)c1ccccc1 (stereo partly drawn)	-1.5
CCC(=O)N1CCc2cc(S(=O)(=O)CCC(=O)NCc3cccc(OC)c3)ccc21	-1.6
COc1ccc(-c2nc3c([nH]2)CN(C(=O)C2CCC2)CC3)cn1	0.98
COc1ccc(CNc2nc3c(-c4ccc(C)cc4)nnn3c3ccccc23)cc1	-1.4
Cc1ccc(C)c(N2CCN(C(=O)CCCn3ncn4c(cc5occc54)c3=O)CC2)c1	-0.28
CCC(Sc1ncc(S(=O)(=O)c2ccc(C)cc2)c(=O)[nH]1)C(=O)Nc1cc(C)ccc1C (stereo not drawn)	-0.87
COc1ccccc1C1CC(=O)NC(C)=C1C(=O)OC1CCCCCC1 (stereo not drawn)	-0.43
Cc1cccc(CNC(=O)N2CCCCC2CCc2ccccn2)n1 (stereo not drawn)	-0.04
CCc1noc(-c2ccccc2NC(=O)NCCc2n[nH]c(=O)n2C)n1	-1.5
CC(=O)c1ccc(N2CCN(C(=O)C3CCN(S(=O)(=O)c4ccc(Br)s4)CC3)CC2)cc1	0.5
O=C(CSc1nc2c(cnn2-c2ccc(F)cc2)c(=O)[nH]1)Nc1ccc(Br)cc1	-1.3
COc1ccc(CN2COc3ccc4c(-c5ccc(OC)cc5)cc(=O)oc4c3C2)cc1	0.84
SMILES	Bm FixLJ act
Cc1ccc(Cn2c(C)c3cnn(CC(=O)NCc4ccccc4)c(=O)c3c2C)cc1	0.1
Cc1ccc2c(N3CCn4nc(CNc5ncccn5)cc4C3)ccnc2c1C	-2.1
Cc1ccc(NCc2cccn2-c2nnc(N3CCC(C(=O)NC(C)C)CC3)s2)cc1	0.01
COc1ccccc1NC(=O)c1sc2nc(C)c(C(=O)Nc3ccc(C)cc3C)c(-c3ccc(C)o3)c2c1N	-2.3
O=C(Nc1cccc(SC(F)(F)F)c1)N1CCN(c2cnccn2)CC1	0.58
CCn1cc(C(=O)Nc2cccc(Cl)c2)c2cc(OC)c(OC)cc2c1=O	-1.4
CCc1ccc(S(=O)(=O)c2nnn3c2nc(NC(C)C)c2cc(Cl)ccc23)cc1	-0.12
O=C(Cn1c(=O)n(-c2ccc(F)cc2)c(=O)c2sc3ccccc3c21)N1CCCC1	-0.97
Cc1ccc(CCNC(=O)c2cc3c(=O)oc4ccccc4c3s2)cc1	-0.79
Cc1cc(CC(C)NC(=O)N(C)Cc2nc3ccccc3n2C)n[nH]1 (stereo not drawn)	-2.9
COc1cccc(C2C(C(=O)Nc3cccnc3)=C(C)Nc3nc(SCc4ccccc4)nn32)c1 (stereo not drawn)	-0.58
CCOc1ccc(NC(=O)CSc2cn(CCNC(=O)c3ccccc3F)c3ccccc23)cc1	0.57
CCCOc1ccccc1C1Oc2nc(SC)nnc2-c2ccccc2N1C(C)=O (stereo not drawn)	-1.2
COc1ccc(CN2CCN(c3nccnc3C#N)CC2)c(Cl)c1OC	-0.44
CC(C)Nc1cccnc1N1CCN(C(=O)c2cc3cc(NS(C)(=O)=O)ccc3[nH]2)CC1	-1.3
CCCCNC(=O)c1ccc2c(=O)n(-c3ccccc3)c(=O)[nH]c2c1	-0.93
Cn1c(=O)oc2cc(S(=O)(=O)N3CCC(C(=O)N4CCN(c5cccc(Cl)c5)CC4)CC3)ccc21	-0.32
Cc1ccc(Cc2c(C)nc3nc(SCC(=O)NC(C)c4ccccc4)nn3c2C)cc1 (stereo not drawn)	-2.9
COc1ccccc1C(=O)Nc1ccc2nc(N3CCC(C)CC3)cc(C)c2c1	1.9
CN1CCC[C@@H]1CCO[C@](C)(c1ccccc1)c1ccc(Cl)cc1	-1.1&-0.18
O=C(Nc1cccc(C(F)(F)F)c1)Nc1cccs1	-3.9
N#Cc1ccc(C(=O)N2CCN(CCc3ccccc3)C(=O)C2)cn1	-0.28
Cc1ccc(-c2cn(-c3cccc(Cl)c3)c(S(=O)(=O)CC(=O)Nc3cccc(C)c3)n2)cc1	1.1
CCc1ccc2occ(CC(=O)Nc3ccccc3C(F)(F)F)c2c1	0.99
CC(C)c1nccn1CCCNC(=O)c1cccc(-c2cnc(N)nc2)c1	1.4
SMILES	Bm FixLJ act
CCSc1ncc(Cl)c(C(=O)N2CCN(c3ccccc3OC)CC2)n1	-1.5
CCN(CC)CCNC(=O)c1cc(-c2ccc(Br)s2)nc2ccccc12	-1.1
CCCCOc1ccc(C(=O)N2CCCCC2CCN2CCOCC2)cc1 (stereo not drawn)	-1.4
CCn1c(=O)n(-c2ccc3c(c2)OCO3)c2nc(-c3cc(OC)ccc3OC)nc(C(N)=O)c21	0.41
Cc1cccc(-n2c3nc(=O)[nH]c(=O)c-3cc3c(C)nn(-c4ccccc4)c32)c1C	-1
Cc1ccc2[nH]cc(C(c3ccccc3)c3cccs3)c2c1 (stereo not drawn)	0.79
COc1cc(Nc2nc(-c3ccc(OC)c(OC)c3)nc3ccccc23)cc(OC)c1	0.51
CCOc1ccc(NC(=O)c2cc3c(-c4ccccc4F)nn(C)c3s2)cc1	0.54
Cc1c(CNCCc2nc(-c3ccccn3)no2)[nH]c2ccc(Cl)cc12	0.85
CCOc1ccccc1NC(=O)Cn1nnc(C(=O)NCc2ccc(F)cc2)c1N	-1.5
Cc1ccccc1NC(=O)CCS(=O)(=O)c1cc(Br)cc2c1N(C(=O)C1CC1)CC2	0.43
CCCn1c(=N)c(C(=O)NC2CCCCC2)cc2c(=O)n3cc(C)ccc3nc21	-2.8
CCOc1cc(C2C(C(=O)OC)=C(C)NC3=C2C(=O)c2ccccc23)ccc1O (stereo not drawn)	1.2
